V. cholerae motility – Vibrio cholerae motility inhibitors, OD read-out (AID 588778). one-dose inhibition, %; IC50 in µg/mL for titrated hits. 10,000 tested, under 10 active. Vibrio cholerae motility, OD read-out; higher % means a stronger effect; test concentration not given here; primary cut-off and reference of the scale not given here; strong numbers were not always called active; in the data active means confirmed in a dose series
V. cholerae motility viability – further read-out of V. cholerae motility, marked with its call; inhibition, %; measured here: bacterial viability at 10 ug/mL;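 higher means fewer living bacteria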
* marks the source's active call; other numbers are inactive results. These rows are one share of the data; count on the stated rates, not on these rows.

SMILES	V. cholerae motility	V. cholerae motility viability
Cc1onc(-c2ccccc2Cl)c1C(=O)Oc1cccc([N+](=O)[O-])c1	-6%	-8
COc1ccc(-c2cc(C3CC3)nc3sc4c(N)ncnc4c23)cc1	4%	-4
Cc1cc(Cl)ccc1OCC(=O)NC(=S)Nc1ccc(S(=O)(=O)N2CCCCC2)cc1	-3%	-4
COc1cccc(C(=O)N2CCN(Cc3ccc(C(F)(F)F)cc3)CC2)c1	-8%	-4
COc1ccc(C(=C2C=CC=C2)c2ccc(OC)cc2)cc1	3%	8
O=C(c1cccs1)N1CCN(C(=O)C2CCCO2)CC1 (centres undefined)	20%	0
COc1ccc(C(=O)Nc2cc(C)c(I)cc2C)cc1[N+](=O)[O-]	-17%	-11
COc1cc(CCN2C(=O)c3cccc4cccc(c34)C2=O)c(S(=O)(=O)N2CCN(c3ccccn3)CC2)cc1OC	-22%	-7
C=C1C2(C(=O)Nc3ncc(Cl)cc3Cl)CCC(C2)C1(C)C (centres undefined)	5%	1
C=CCn1c(-c2ccco2)n[nH]c1=S	-13%	-3
COc1ccc(CC(=O)NC(=S)N2CCOCC2)cc1	-2%	0
CC(=O)c1cccc(NC(=O)Nc2cc(C(F)(F)F)ccc2F)c1	-26%	-14
CCOC(=O)Nc1cccc(NC(=O)C(c2ccccc2)c2ccccc2)c1	18%	-1
Cc1cc(NC(=O)c2sc3nc4c(c(-c5cccs5)c3c2N)CN(C)CC4)no1	6%	9
CN(CC(=O)Nc1ccc(Br)cc1)Cc1ccccc1	17%	1
Cc1ccc(S(=O)(=O)N(CC(=O)O)c2ccccc2F)cc1	-5%	-4
O=C(Nc1ccc2c(c1)ncn2C1CCCCC1)c1ccco1	4%	0
CCOC(=O)c1ccc(NC(=S)Nc2ccc(Cl)cn2)cc1	-8%	-10
CCCOc1ccc(-c2c(C)n([O-])c(C)c(-c3ccccc3)[n+]2=O)cc1	6%	4
N/C(=N\OC(=O)Cc1ccccc1)c1ccccc1Cl	-7%	9
Cn1nnc2cc(NC(=O)NCc3ccco3)ccc21	10%	6
COc1ccc2c(c1)c1ccccc1n2C	-3%	-7
NC(=O)C1CCN(C(=S)c2ccc(-c3ccc(Br)cc3)o2)CC1	8%	35
N/C(=N/OC(=O)c1ccccc1F)c1ncon1	20%	11
CNc1ccc(Cl)cc1C(NC(N)=O)c1ccccc1 (centres undefined)	15%	-3

More compounds
SMILES	V. cholerae motility	V. cholerae motility viability
COc1ccc(-n2nc3ccc(NC(=O)c4sc5ccccc5c4Cl)cc3n2)cc1	2%	-5
Cc1ccc(C(=O)Nc2ncccn2)cc1Cl	9%	1
COc1ccc(OC)c(S(=O)(=O)N(C)CC(=O)N2CCCC2)c1	13%	-3
COc1ccccc1NC(=O)c1cnc(Nc2nc3ccccc3s2)nc1C	6%	0
CC(=O)Nc1ccc(Oc2nc(-c3ccccc3F)nc3ccccc23)cc1	-12%	-6
CCS(=O)(=O)Nc1cc(OC)c(Cl)cc1OC	22%	4
Cc1cc(C)cc(CC(C(=O)Nc2ccccc2I)C(C)C(=O)O)c1 (centres undefined)	-5%	-5
O=C(NC(Nc1ccc(F)cc1)C(Cl)(Cl)Cl)c1ccco1 (centres undefined)	-3%	-4
COc1ccc(-c2cc(-c3ccc(Br)cc3)nc3ncnn23)cc1OC	2%	-2
Nc1nc(-c2ccccc2)c(NC(=O)c2ccccc2)s1	-20%	-6
O=C(NCc1ccc(-c2nc3ccccc3o2)cc1)c1cccnc1	0%	-10
CCOC(=O)c1cnc2nc(SC)[nH]n2c1=O	6%	0
O=C(NC1(C(F)(F)F)N=C(c2ccccc2)NC1=O)C1CCCCC1 (centres undefined)	-6%	-3
O=C(NCC1CCCO1)c1cc(-c2ccc(Cl)s2)nc2ccccc12 (centres undefined)	8%	3
Cc1cc2ncn(C3CC(=O)N(C)C3=O)c2cc1C (centres undefined)	-8%	-4
Cc1nnc(SCC(=O)Nc2c(Cl)cccc2Cl)[nH]c1=O	-1%	-2
Cc1cc2occ(CC(=O)NNC(=O)c3ccncc3)c2c(C)c1Cl	3%	-5
O=C(Cc1cc2ccccc2n1Cc1ccccc1)Nc1ccccc1Cl	-16%	-6
Cc1ccc(C2=NN=C(NC(=O)CSc3nnnn3-c3ccccc3)SC2)cc1	-11%	-9
O=C(O)c1cc2ncc(CCO)cn2n1	-12%	2
O=C(CSc1nnnn1C1CC2CCC1C2)Nc1ccnc2ccccc12 (centres undefined)	19%	9
COC(=O)C(C)n1ncc2ccccc2c1=O (centres undefined)	-2%	-10
COc1ccccc1C(=O)N=Nc1c(O)[nH]c2ccc([N+](=O)[O-])cc12	9%	13
O=C(NCc1cccs1)c1cnn2cccnc12	-17%	-8
O=C(Nc1nccs1)C1C2/C=C\CCCCC21 (centres undefined)	1%	-6

Next part:
SMILES	V. cholerae motility	V. cholerae motility viability
O=C(Nc1nc2ccccc2[nH]1)C1CC1	-7%	-11
COc1cccc(CN2CCN(C(=O)C(c3ccccc3)c3ccccc3)CC2)c1OC	11%	31
CCCCOc1ccc(NC(=O)CS(=O)(=O)CC(=O)c2ccc(Br)cc2)cc1	-2%	-4
CCOc1ccc2nc(SCC(=O)Nc3ccc4c(c3)OCO4)[nH]c2c1	5%	3
Cc1cc(NC(=O)c2cc3ccccc3oc2=O)no1	-9%	-9
COc1ccc(Cl)cc1C(=O)O/N=C(\N)c1ccccn1	-5%	0
CN1CCc2nc(SCC(=O)OCc3ccccc3)c(C#N)c(-c3ccccc3)c2C1	-8%	5
O=C(NCc1cccc2ccccc12)C12CC3CC(CC(C3)C1)C2	-6%	-6
O=S(=O)(Nc1ccc(N2CCOCC2)cc1)c1cccc2cccnc12	-19%	-18
C/C(=N\N=C1\NC(=O)C(Cc2cccc(C(F)(F)F)c2)S1)c1ccc(F)cc1 (centres undefined)	-5%	-2
Cc1ccc(OCC(=O)Nc2ccccc2OC(F)F)cc1C	-13%	0
Cc1cc(NC(=O)Nc2ccccc2)n(-c2ccccc2)n1	-20%	-6
O=C(NNC(=O)c1ccncc1)Nc1cccc(C(F)(F)F)c1	10%	4
C=CCNC(=O)C12CC3CCC1(C)C3(C)CO2 (centres undefined)	2%	2
Fc1ccccc1CSc1nnc(Cn2cnc3ccccc32)n1-c1ccccc1	1%	0
CN(C)C(=S)Nc1cccc(Br)c1	16%	1
Cc1c(C(C)NC(=O)Cc2c(Cl)cccc2Cl)cnn1C (centres undefined)	1%	7
Cc1ccsc1CNn1cn[nH]c1=S	30%	10
COCCSc1ccccc1C(=O)Nc1nc2ccccc2s1	4%	5
O=Cc1c[nH]c2ccc(Br)cc12	99%	22
Cc1cc(C)nc(NC(=S)Nc2ccc(F)cc2F)c1	6%	-1
O=C(NCCC1=CCCCC1)c1cnsn1	-2%	-5
Cc1ccc2nc(-c3cccc(N4C(=O)c5cccc6c([N+](=O)[O-])ccc(c56)C4=O)c3)oc(=O)c2c1	-5%	-7
CC(C)c1ccc(CSc2nc3ccccc3[nH]2)cc1	-7%	-1
COC(=O)CCC(=O)c1cc2ccccc2o1	11%	-6

33 of these compounds, reformatted.
| smiles | V. cholerae motility | V. cholerae motility viability |
| --- | --- | --- |
| O=C(Cc1cc2ccccc2n1Cc1ccccc1)Nc1ccccc1Cl | -16% | -6 |
| Cc1ccc(C2=NN=C(NC(=O)CSc3nnnn3-c3ccccc3)SC2)cc1 | -11% | -9 |
| O=C(O)c1cc2ncc(CCO)cn2n1 | -12% | 2 |
| O=C(CSc1nnnn1C1CC2CCC1C2)Nc1ccnc2ccccc12 (centres undefined) | 19% | 9 |
| COC(=O)C(C)n1ncc2ccccc2c1=O (centres undefined) | -2% | -10 |
| COc1ccccc1C(=O)N=Nc1c(O)[nH]c2ccc([N+](=O)[O-])cc12 | 9% | 13 |
| O=C(NCc1cccs1)c1cnn2cccnc12 | -17% | -8 |
| O=C(Nc1nccs1)C1C2/C=C\CCCCC21 (centres undefined) | 1% | -6 |
| O=C(Nc1nc2ccccc2[nH]1)C1CC1 | -7% | -11 |
| COc1cccc(CN2CCN(C(=O)C(c3ccccc3)c3ccccc3)CC2)c1OC | 11% | 31 |
| CCCCOc1ccc(NC(=O)CS(=O)(=O)CC(=O)c2ccc(Br)cc2)cc1 | -2% | -4 |
| CCOc1ccc2nc(SCC(=O)Nc3ccc4c(c3)OCO4)[nH]c2c1 | 5% | 3 |
| Cc1cc(NC(=O)c2cc3ccccc3oc2=O)no1 | -9% | -9 |
| COc1ccc(Cl)cc1C(=O)O/N=C(\N)c1ccccn1 | -5% | 0 |
| CN1CCc2nc(SCC(=O)OCc3ccccc3)c(C#N)c(-c3ccccc3)c2C1 | -8% | 5 |
| O=C(NCc1cccc2ccccc12)C12CC3CC(CC(C3)C1)C2 | -6% | -6 |
| O=S(=O)(Nc1ccc(N2CCOCC2)cc1)c1cccc2cccnc12 | -19% | -18 |
| C/C(=N\N=C1\NC(=O)C(Cc2cccc(C(F)(F)F)c2)S1)c1ccc(F)cc1 (centres undefined) | -5% | -2 |
| Cc1ccc(OCC(=O)Nc2ccccc2OC(F)F)cc1C | -13% | 0 |
| Cc1cc(NC(=O)Nc2ccccc2)n(-c2ccccc2)n1 | -20% | -6 |
| O=C(NNC(=O)c1ccncc1)Nc1cccc(C(F)(F)F)c1 | 10% | 4 |
| C=CCNC(=O)C12CC3CCC1(C)C3(C)CO2 (centres undefined) | 2% | 2 |
| Fc1ccccc1CSc1nnc(Cn2cnc3ccccc32)n1-c1ccccc1 | 1% | 0 |
| CN(C)C(=S)Nc1cccc(Br)c1 | 16% | 1 |
| Cc1c(C(C)NC(=O)Cc2c(Cl)cccc2Cl)cnn1C (centres undefined) | 1% | 7 |
| Cc1ccsc1CNn1cn[nH]c1=S | 30% | 10 |
| COCCSc1ccccc1C(=O)Nc1nc2ccccc2s1 | 4% | 5 |
| O=Cc1c[nH]c2ccc(Br)cc12 | 99% | 22 |
| Cc1cc(C)nc(NC(=S)Nc2ccc(F)cc2F)c1 | 6% | -1 |
| O=C(NCCC1=CCCCC1)c1cnsn1 | -2% | -5 |
| Cc1ccc2nc(-c3cccc(N4C(=O)c5cccc6c([N+](=O)[O-])ccc(c56)C4=O)c3)oc(=O)c2c1 | -5% | -7 |
| CC(C)c1ccc(CSc2nc3ccccc3[nH]2)cc1 | -7% | -1 |
| COC(=O)CCC(=O)c1cc2ccccc2o1 | 11% | -6 |

In a second layout: results already given.
mol | V. cholerae motility | V. cholerae motility viability
COC(=O)CCC(=O)c1cc2ccccc2o1 | 11% | -6
CC(C)c1ccc(CSc2nc3ccccc3[nH]2)cc1 | -7% | -1

Further records follow:
SMILES	V. cholerae motility	V. cholerae motility viability
Cc1ccc(Cl)c(NC(=O)NCCN2CCN(c3ccccc3[N+](=O)[O-])CC2)c1	7%	8
CCn1ncc(C2=NOC(C(=O)Nc3ccc(Cl)c(Cl)c3)C2)c1C (centres undefined)	12%	3
COc1ccccc1N(C(F)F)S(=O)(=O)c1cccs1	16%	21
COc1cccc(OCCCOc2ccc(Cl)cc2C)c1	-7%	-10
Cc1c(OC(=O)c2ccco2)ccc2c(=O)c(-c3nc4ccccc4s3)c(C(F)(F)F)oc12	9%	-1
O=C(Nc1nncs1)c1ccc(C(=O)C(=O)c2ccccc2)cc1	-5%	-5
O=C(CSCc1ccc(Cl)c(Cl)c1)NNC(=S)Nc1ccc(F)cc1F	11%	2
O=C(Nc1ccccc1I)C(C(F)(F)F)C(F)(F)F	0%	-3
COc1ccc(OCC(=O)Nc2cc(-c3nn4c(C)nnc4s3)ccc2C)cc1	10%	12
COC(=O)COc1ccc(S(=O)(=O)N2CCN(Cc3ccccc3)CC2)cc1	2%	2
O=C(NCC1CCCO1)C(F)(F)C(F)(F)C(=O)NCC1CCCO1 (centres undefined)	12%	7
Cc1nc2cc(NC(=O)NCc3ccc4c(c3)OCO4)ccc2o1	-9%	-7
Cc1ccc(S(=O)(=O)Nc2cc(C3CCC(=O)C3)c(NS(=O)(=O)c3ccc(C)cc3)c3ccccc23)cc1 (centres undefined)	12%	0
O=S(=O)(c1ccc(-c2ccc(S(=O)(=O)N3CCSCC3)cc2)cc1)N1CCSCC1	-14%	3
O=C(CSc1nnc(SCc2ccc(Cl)cc2)s1)N1CCc2ccccc2C1	13%	36
COc1nc(Nc2ccc(-c3nc4ccccc4o3)cc2)nc(N2CCOCC2)n1	-10%	-4
O=C(O)c1ccccc1NS(=O)(=O)c1ccc2[nH]c(=O)[nH]c2c1	3%	-3
O=C(Nc1nnc(C2CC2)s1)c1ccc(S(=O)(=O)c2ccccc2)cc1	-4%	-16
CCOc1cc(C=C2C(=O)NC(=O)NC2=O)cc(I)c1OC(=O)c1ccco1	0%	-2
Cc1cn(C(=O)CSc2nc(C(F)(F)F)cc(-c3ccccc3)c2C#N)c(C)n1	9%	33
O=C(Cc1ccc(Cl)cc1)Nc1ccc2c(c1)Cc1ccccc1-2	-18%	-13
CC(C)COC(=O)Nc1nnc(COc2ccc([N+](=O)[O-])cc2)s1	-7%	-3
O=C(CC12CC3CC(CC(C3)C1)C2)NC(=S)Nc1ccc2c3c(cccc13)CC2	-7%	-1
Cn1nnnc1SCc1ccc(Cl)cc1Cl	17%	4
Fc1ccc(CN2CCN(Cc3cccc(Oc4ccccc4)c3)CC2)cc1	3%	-3
CC(Oc1ccc(Cl)cc1Cl)C(=O)Nc1cccc(C(=O)Nc2nccs2)c1 (centres undefined)	5%	1
CN1CCN(C(=O)COc2ccc([N+](=O)[O-])cc2)CC1	-3%	-9
O=C(CCN1CCOCC1)Nc1ccc(Cl)cc1	-2%	-9
CC(=O)c1cc2c(cc1NC(=O)CN1CCC(Cc3ccccc3)CC1)OCO2	-7%	0

Compound activity (PubChem)
